Compound activity: PubChem, National Center for Advancing Translational Sciences (NCATS)
LASV entry inh: blocks Lassa virus binding to or entry into cells; Lassa virus pseudotype entry inhibition, cell reporter; control for the full effect not named in the record; 1.2% of 300,000 active; Potency, µM (series often up to 37.9 µM), without a hit: at the top dose activity change, negative = inhibition, hits mostly inhibitors; active means well fitted inhibition curve with a large enough effect; inconclusive means small, poorly fitted or top-dose-only effect, or effect the other way; inactive means flat fitted curve, though single readings scatter; tested in HEK293 cells; note: % is set by controls: 0 for no effect and ±100 for the full control effect; nearly all actives have a fitted effect of over 50% in size; luciferase read-out
RE007 growth inh: less growth of the S. pombe RE007 Vpr strain | S. pombe RE007 Vpr strain, BacTiter-Glo ATP luminescence, 24 h; control for the full effect not named in the record | Potency, µM (highest dose often 92.2 µM), for the others: at the highest dose activity change, negative = less growth | 0.21% of 360,000 active | AID 651644; active = well fitted falling curve with a large enough effect; inconclusive = small, poorly fitted or top-dose-only effect; inactive = no such curve, though single readings can be large or run the other way;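 note: % is set by controls: 0 for no effect and ±100 for the full control effect; nearly all actives have a fitted effect of over 50% in size; the assay follows cell death caused by Vpr and the record does not say whether a fall means rescue or toxicity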
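Fission yeast strain RE007, carrying one chromosomally integrated HIV-1 vpr copy, was seeded at OD 0.01 in PMG+AL medium with 23 nL pinned compound. After 24 h at 30 °C and 99% humidity, viability was read by BacTiter-Glo luminescence.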
Cruzain Triton: cruzain (T. cruzi) inhibition with detergent | P25779 | purified cruzain, Z-FR-AMC fluorescence, 0.01% Triton | Potency, µM, without a hit: max response, negative = inhibition, actives largely listed as inhibitors | 0.43% of 200,000 active; active = well fitted curve in the direction sought with a large enough effect; inconclusive = small, poorly fitted or top-dose-only effect, or another doubt; inactive = no such curve, though single readings can be large; an effect the other way counts as inactive or inconclusive;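 note: plate controls were neutral wells for no effect and buffer without enzyme for full effect; nearly all actives have a fitted effect of over 40% in size; top concentration of the series not given in the record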
Target sequence (P25779 123-467 limits assumed): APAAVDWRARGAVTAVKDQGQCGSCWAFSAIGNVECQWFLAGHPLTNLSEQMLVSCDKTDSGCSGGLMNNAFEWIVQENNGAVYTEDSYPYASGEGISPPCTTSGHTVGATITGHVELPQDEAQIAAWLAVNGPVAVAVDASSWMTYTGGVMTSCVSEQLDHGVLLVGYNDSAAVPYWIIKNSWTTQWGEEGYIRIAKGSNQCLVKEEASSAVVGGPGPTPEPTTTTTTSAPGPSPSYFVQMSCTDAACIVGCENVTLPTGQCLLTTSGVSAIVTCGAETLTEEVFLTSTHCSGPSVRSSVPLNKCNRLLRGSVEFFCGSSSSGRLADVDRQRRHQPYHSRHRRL
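Read-out: AMC fluorescence (360 nm excitation, 450 nm emission), four reads over 2 min, first-to-third difference used. Conditions: cruzain 1.5 nM, Z-FR-AMC 2 uM, pH 5.5 acetate, 5 mM DTT, 0.01% Triton X-100.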
SARS PLpro yeast: inhibitors of SARS-CoV papain-like protease in yeast. AID 485353. Potency, µM (doses to about 32.9 µM), for inactives: top-dose activity, positive = growth rescue. S. cerevisiae expressing SARS-CoV PLpro, growth rescue; control for the full effect not named in the record. 0.19% of 330,000 active; note: 0% is about no effect; nearly all actives have a fitted effect of over 55% in size; growth read by luminescence after 48 h
Cruzain noTriton: blocks cruzain activity in detergent-free assay; P25779; purified cruzain, Z-FR-AMC fluorescence, no detergent; Potency, µM, without a hit: max response, negative = inhibition, usual class: inhibitors; 2.3% of 200,000 active; AID 1476; active = well fitted curve in the direction sought with a large enough effect; inconclusive = small, poorly fitted or top-dose-only effect, or another doubt; inactive = no such curve, though single readings can be large; an effect the other way counts as inactive or inconclusive;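 note: plate controls were enzyme without inhibitor for no effect and buffer without enzyme for full effect; nearly all actives have a fitted effect of over 40% in size; top concentration of the series not given in the record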
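Detergent-free condition (0.00005% Triton X-100) in acetate buffer pH 5.5 with DTT. 1.5 nM enzyme and compound were pre-mixed 15 min, then 2 uM Z-FR-AMC substrate added; reaction progress from fluorescence change between first and third reads (60 s).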
NS1 inh: inhibitors of influenza NS1 protein function; S. cerevisiae slowed by influenza A NS1, growth recovery by OD600; Potency, µM (titrated, usually from 46.1 µM), for the others: at the highest dose activity, positive = more growth; 0.4% of 270,000 active; AID 2326; note: actives are rising curves; nearly all actives have a fitted effect of over 50% in size
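OD600 was taken as the measure of yeast growth restored by compound in an NS1-expressing S. cerevisiae strain. Cells had been washed out of glucose medium and diluted 1:100 into galactose -URA medium, pH 6.0.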
MARV entry inh: blocks Marburg virus binding to or entry into cells. AID 540276. 1.8% of 300,000 active. Potency, µM (highest dose often 37.8 µM), inactives show at the top dose activity change, negative = inhibition, usual class: inhibitors. Marburg virus pseudotyped entry inhibition, cell reporter; control for the full effect not named in the record; about a third of the inactives were read at about 46 µM; active = well fitted inhibition curve with a large enough effect; inconclusive = small, poorly fitted or top-dose-only effect, or effect the other way; inactive = flat fitted curve, though single readings scatter; tested in HEK293 cells; about a fifth of its hits are not listed in these tables; note: % is set by controls: 0 for no effect and ±100 for the full control effect; luciferase read-out
2A StopGo: FMDV 2A StopGo reporter, luciferase signal | human cells with a luciferase reporter of 2A StopGo recoding; control for the full effect not named in the record | Potency, µM (series often up to 57.9 µM), inactives show at the highest dose signal change, negative = less light | 1.2% of 410,000 active; active = well fitted falling curve with a large enough effect; inconclusive = small, poorly fitted or top-dose-only effect; inactive = no such curve, though single readings can be large or run the other way; tested in HEK293T cells; note: % is set by controls: 0 for no effect and ±100 for the full control effect; nearly all actives have a fitted effect of over 45% in size; luciferase light after 4 h
Starred values were filed as active, the others as inactive; [ ] = another dose, or the depositor's remark. Unless noted, calls come from the whole dose curve; as a rule, active means well fitted rising curve with a large enough effect; inconclusive means small, poorly fitted or top-dose-only effect; inactive means no such curve, though single readings can be large or run the other way. Potency is the fitted concentration of half-maximal effect.

Screening C[n+]1ccc(/C=C/c2c[nH]c3ccc(F)cc23)cc1 returned RE007 growth inh inconclusive, SARS PLpro yeast 2.1%, NS1 inh 2.0% and 2A StopGo inconclusive.
For CCCN(CCC)CCCNC(=O)CS(=O)Cc1nc(-c2ccc(OC)c(OC)c2)oc1C (stereo not given) the results were LASV entry inh 0.8%, RE007 growth inh -12.6%, Cruzain Triton 2.0%, SARS PLpro yeast -3.6%, Cruzain noTriton -4.8%, NS1 inh -4.1%, MARV entry inh inconclusive and 2A StopGo -17.2%.
For N=c1c(C(=O)NCc2ccco2)cc2c(=O)n3ccccc3nc2n1Cc1ccc(Cl)cc1 the results were LASV entry inh -13.8%, RE007 growth inh -1.8%, Cruzain Triton -5.4%, SARS PLpro yeast 4.0%, Cruzain noTriton -28.4%, NS1 inh 7.94µM*, MARV entry inh inconclusive and 2A StopGo -2.8%.
Screening Nc1ccc(OCCc2ccccc2)cc1 returned LASV entry inh 9.7%[46.1 µM], RE007 growth inh 4.7%, SARS PLpro yeast 2.9%, NS1 inh 26.3%, MARV entry inh 1.1%[46.1 µM] and 2A StopGo 29.1%.
Screening COc1ccc2oc(C(=O)OCC(=O)N3CCCCC3C)c(C)c2c1 (stereo not given) returned LASV entry inh 1.6%, RE007 growth inh 7.3%, SARS PLpro yeast -0.9%, MARV entry inh 19.7% and 2A StopGo -6.9%.
CCN(CC)CCNC(=O)Cn1cnc2sc(C)c(S(=O)(=O)N3CCN(c4ncccn4)CC3)c2c1=O was read as LASV entry inh 2.7%, RE007 growth inh 6.6%, SARS PLpro yeast 3.9%, MARV entry inh 1.7%[46.1 µM] and 2A StopGo -10.5%.
Screening CCOC(=O)CN1C(=O)C2(OCCCO2)c2ccccc21 returned LASV entry inh 11.1%, RE007 growth inh 5.0%, Cruzain Triton 7.0%, SARS PLpro yeast -4.5%, Cruzain noTriton -4.0%, NS1 inh -3.3%, MARV entry inh 15.8% and 2A StopGo 19.0%.
`O=c1[nH]nc(-c2ccc([N+](=O)[O-])o2)c(=O)[nH]1` gave LASV entry inh 17.8%[46.1 µM], RE007 growth inh -10.8%, MARV entry inh inconclusive and 2A StopGo 0.2%.
For CCCCCCNS(=O)(=O)c1ccc(NC(=O)C2CCCO2)cc1 (stereo not given) the results were LASV entry inh -13.9%, RE007 growth inh -6.4%, Cruzain Triton -4.2%, SARS PLpro yeast -3.2%, Cruzain noTriton -7.3%, NS1 inh -11.5%, MARV entry inh inconclusive and 2A StopGo -10.7%.
Cn1nc(-c2ccccc2)c2nc3ccccc3nc21 was read as LASV entry inh 2.9%, RE007 growth inh -15.2%, Cruzain Triton -6.6%, SARS PLpro yeast -2.1%, Cruzain noTriton 0.7%, NS1 inh -8.2%, MARV entry inh 2.7% and 2A StopGo -23.1%.
Screening COc1cccc(S(=O)(=O)NCc2ccc(C(=O)Nc3ccc(Cl)cc3)cc2)c1 returned LASV entry inh -29.5%, RE007 growth inh -6.4%, Cruzain Triton -6.0%, SARS PLpro yeast 13.2%, Cruzain noTriton inconclusive, NS1 inh 1.4%, MARV entry inh inconclusive and 2A StopGo inconclusive.
Screening CCOC(=O)c1cnn(-c2nc(SC)nc3sc4c(c23)CCCC4)c1N returned LASV entry inh -13.9%, RE007 growth inh -14.4%, Cruzain Triton 0.9%, SARS PLpro yeast -39.5%, Cruzain noTriton -6.8%, NS1 inh 3.1%, MARV entry inh -18.5% and 2A StopGo 3.1%.
CC1Cc2ccccc2N1C1=CC(=O)CC(C)(C)C1 (stereo not given) was read as LASV entry inh -2.9%, RE007 growth inh 19.6%, SARS PLpro yeast -0.6%, MARV entry inh 3.5%[46.1 µM] and 2A StopGo 3.3%.
For CN1CCN(CCNC(=O)Nc2ccccc2C(F)(F)F)CC1 the results were LASV entry inh 8.5%, RE007 growth inh 8.2%, Cruzain Triton 0.7%, SARS PLpro yeast 6.5%, Cruzain noTriton -4.8%, NS1 inh -7.4%, MARV entry inh inconclusive and 2A StopGo -8.3%.
`Cc1cc(C)c2c(N)c(S(=O)(=O)Cc3ccccc3)sc2n1` gave LASV entry inh 12.6%, RE007 growth inh -2.1%, Cruzain Triton -2.4%, SARS PLpro yeast -7.6%, Cruzain noTriton 4.0%, NS1 inh -24.1%, MARV entry inh inconclusive and 2A StopGo -1.5%.
Screening Cc1ccc(N(CCCCN2C(=O)c3ccccc3C2=O)C(=O)c2ccc(Cl)s2)cc1 returned LASV entry inh inconclusive, RE007 growth inh -5.1%, Cruzain Triton -4.1%, SARS PLpro yeast 7.5%, Cruzain noTriton -2.2%, NS1 inh -0.6%, MARV entry inh 1.2% and 2A StopGo 0.0%.
CN1C(=O)/C(=C/c2cc(C(C)(C)C)c(O)c(C(C)(C)C)c2)NC1=S was read as LASV entry inh 7.6%, RE007 growth inh 2.6%, SARS PLpro yeast 3.9%, MARV entry inh -8.3% and 2A StopGo -6.7%.
CC(C)(C)c1ccc(S(=O)(=O)NCc2nc3cccnc3n2Cc2ccccc2Cl)cc1 was read as LASV entry inh -3.0%[46.1 µM], Cruzain Triton -8.3%, Cruzain noTriton 19.3% and 2A StopGo 1.0%.
`CCSC(C)CC1C/C(=N/O)c2c(C)noc2C1` (stereo not given) gave LASV entry inh -14.8%, RE007 growth inh 0.3%, Cruzain Triton 0.1%, SARS PLpro yeast 2.4%, Cruzain noTriton -3.0%, NS1 inh -68.8% and MARV entry inh inconclusive.
CCn1nc(C(=O)N[C@@H](CCSC)c2nc3ccccc3[nH]2)c2ccccc2c1=O was read as LASV entry inh 4.2%, RE007 growth inh 12.5%, Cruzain Triton -4.7%, SARS PLpro yeast 2.5%, Cruzain noTriton -5.3%, NS1 inh -14.2%, MARV entry inh 22.4% and 2A StopGo 16.5%.
Screening Cc1cccc(C(=O)NNC(=O)c2csc(N3CCOCC3)n2)c1C returned LASV entry inh 2.2%, RE007 growth inh 6.0%, SARS PLpro yeast -1.6%, MARV entry inh 2.2% and 2A StopGo -12.8%.
For COc1cc(NC(=O)CC2C(=O)N(c3cccc(C)c3)C(=O)N2Cc2ccco2)cc(OC)c1 (stereo not given) the results were LASV entry inh inconclusive, Cruzain Triton -8.0%, Cruzain noTriton 6.1% and 2A StopGo -5.6%.
`CCCCC(=O)NC(Nc1ccc(C)cn1)(C(=O)OCC)C(F)(F)F` (stereo not given) gave LASV entry inh inconclusive, RE007 growth inh -2.6%, Cruzain Triton 2.5%, SARS PLpro yeast -8.6%, Cruzain noTriton 11.9%, NS1 inh -9.5%, MARV entry inh 1.6% and 2A StopGo 19.4%.
`COc1ccc(C(c2nnnn2C2CCCCC2)N2CCN(c3ccccc3F)CC2)cc1` (stereo not given) gave LASV entry inh inconclusive, RE007 growth inh -9.1%, Cruzain Triton -0.5%, SARS PLpro yeast -12.8%, Cruzain noTriton -11.9%, NS1 inh -39.3%, MARV entry inh inconclusive and 2A StopGo -5.0%.
For CCc1ccccc1NC(=O)CSCc1cnn(-c2ccccc2)c1-n1cccc1 the results were LASV entry inh -10.9%[46.1 µM], Cruzain Triton -6.7%, Cruzain noTriton inconclusive, MARV entry inh -29.8%[46.1 µM] and 2A StopGo inconclusive.
`CCOc1ccc(NC(=O)CS(=O)CC(=O)NC2CCCc3ccccc32)cc1` (stereo not given) gave LASV entry inh -7.7%, RE007 growth inh 0.9%, Cruzain Triton 2.8%, SARS PLpro yeast 0.0%, Cruzain noTriton -10.4%, NS1 inh 6.2%, MARV entry inh -22.2% and 2A StopGo 13.0%.
CC1=NNC(=O)C1CCC(=O)N/N=C\c1cccc(Cl)c1 (stereo not given) was read as LASV entry inh 3.9%[46.1 µM], RE007 growth inh 8.5%, SARS PLpro yeast 1.3%, NS1 inh 18.2%, MARV entry inh -19.6%[46.1 µM] and 2A StopGo 5.2%.
`COc1cc2c(cc1OC)C(C)N(C(=O)CCNC(=O)c1ccccc1)CC2` (stereo not given) gave RE007 growth inh -5.6%, SARS PLpro yeast 1.4%, NS1 inh -7.2% and 2A StopGo 23.9%.
Screening CSc1ccc(CN(C)C(=O)CSCC(=O)Nc2cc(C)on2)cc1 returned LASV entry inh 4.9%, RE007 growth inh 0.9%, SARS PLpro yeast -2.2%, NS1 inh 17.5%, MARV entry inh inconclusive and 2A StopGo -22.0%.
For c1ccc(C2c3c(ccc4ccccc34)Oc3ncn4nc(-c5ccco5)nc4c32)cc1 (stereo not given) the results were LASV entry inh 6.5%, RE007 growth inh 1.5%, Cruzain Triton -5.8%, SARS PLpro yeast 13.5%, Cruzain noTriton 3.16µM*, NS1 inh 8.3%, MARV entry inh 20.5% and 2A StopGo -11.0%.
Screening COc1ccccc1C(=O)NC(=S)Nc1cc(C(=O)O)ccc1C returned LASV entry inh 4.7%[46.1 µM], RE007 growth inh 6.0%, SARS PLpro yeast -0.3%, MARV entry inh inconclusive and 2A StopGo 12.9%.
`CCN(CC(=O)Nc1c(F)cccc1F)C(=O)CN1C(=O)NC2(CCCC2)C1=O` gave LASV entry inh 12.6%, RE007 growth inh -7.8%, SARS PLpro yeast 0.4%, MARV entry inh 2.4%[46.1 µM] and 2A StopGo -0.3%.
CCN(CC(=O)NCc1cccs1)C(=O)c1ccc(-c2ccccc2F)o1 was read as LASV entry inh 0.9%, RE007 growth inh 3.5%, SARS PLpro yeast -1.4%, MARV entry inh inconclusive and 2A StopGo 7.0%.
Screening Cc1cc(=O)oc(C)c1C(=O)NNC(=O)C1(C)CC1Br (stereo not given) returned LASV entry inh -2.0%, RE007 growth inh -8.2%, SARS PLpro yeast -0.8%, NS1 inh 1.6%, MARV entry inh 11.8% and 2A StopGo -7.2%.
Screening COc1ccc(Cl)cc1NC(=S)NN1CCOCC1 returned LASV entry inh 4.4%[46.1 µM], RE007 growth inh 3.5%, SARS PLpro yeast 0.0%, NS1 inh 0.3%, MARV entry inh -0.9%[46.1 µM] and 2A StopGo 7.2%.
Screening Cc1ccc(CN(C(=O)c2cc3ccccc3oc2=O)C2CCS(=O)(=O)C2)cc1 (stereo not given) returned LASV entry inh -5.9%, RE007 growth inh -3.0%, Cruzain Triton 1.4%, SARS PLpro yeast -1.9%, Cruzain noTriton -7.0%, NS1 inh -10.5%, MARV entry inh 8.5% and 2A StopGo 67.3%[activator].
Screening COc1ccccc1NC(=O)CN1CCN(Cc2ccccc2)CC1 returned LASV entry inh -14.2%, RE007 growth inh 7.8%, Cruzain Triton -0.4%, SARS PLpro yeast 4.2%, Cruzain noTriton 4.8%, NS1 inh 0.0%, MARV entry inh -14.4% and 2A StopGo 0.4%.
